From PubChem BioAssay
Cruzain noTriton = cruzain (T. cruzi) inhibition without detergent. hit rate 2.3% among 200,000. purified cruzain, Z-FR-AMC fluorescence, no detergent. Potency, µM, for the others: max response, negative = inhibition, hits mostly inhibitors. P25779;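 also: plate controls were enzyme without inhibitor for no effect and buffer without enzyme for full effect; nearly all actives have a fitted effect of over 40% in size; top concentration of the series not given in the record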
Target sequence (P25779 123-467 limits assumed): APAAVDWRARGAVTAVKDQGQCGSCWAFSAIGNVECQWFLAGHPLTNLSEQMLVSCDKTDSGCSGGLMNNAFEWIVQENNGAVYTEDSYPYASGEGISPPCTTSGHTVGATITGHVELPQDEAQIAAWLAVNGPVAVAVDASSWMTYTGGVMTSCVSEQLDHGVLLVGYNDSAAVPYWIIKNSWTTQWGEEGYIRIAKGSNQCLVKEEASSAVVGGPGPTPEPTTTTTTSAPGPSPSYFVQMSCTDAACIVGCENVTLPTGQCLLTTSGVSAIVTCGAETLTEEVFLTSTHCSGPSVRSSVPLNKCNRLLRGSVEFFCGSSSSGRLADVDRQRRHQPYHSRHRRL
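Detergent-free condition (0.00005% Triton X-100) in acetate buffer pH 5.5 with DTT. 1.5 nM enzyme and compound were pre-mixed 15 min, then 2 uM Z-FR-AMC substrate added; reaction progress from fluorescence change between first and third reads (60 s).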
Cruzain inh Det = inhibitors of Trypanosoma cruzi cruzain with detergent; purified cruzain, Z-FR-AMC fluorescence, 0.01% Triton; Potency, µM, inactives show max response, negative = inhibition, usual class: inhibitors; hit rate 0.43% among 200,000; AID 1478;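 also: plate controls were neutral wells for no effect and buffer without enzyme for full effect; nearly all actives have a fitted effect of over 40% in size; top concentration of the series not given in the record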
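Read-out: AMC fluorescence (360 nm excitation, 450 nm emission), four reads over 2 min, first-to-third difference used. Conditions: cruzain 1.5 nM, Z-FR-AMC 2 uM, pH 5.5 acetate, 5 mM DTT, 0.01% Triton X-100.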
Marburg entry inh = Marburg virus entry inhibition; Marburg virus pseudotyped entry inhibition, cell reporter; control for the full effect not named in the record; about a third of the inactives were read at about 46 µM; Potency, µM (titrated, usually from 37.8 µM), for inactives: top-dose activity change, negative = inhibition, hits mostly inhibitors; hit rate 1.8% among 300,000; active = well fitted inhibition curve with a large enough effect; inconclusive = small, poorly fitted or top-dose-only effect, or effect the other way; inactive = flat fitted curve, though single readings scatter; tested in HEK293 cells; about a fifth of its hits are not listed in these tables; also: % is scaled to controls: 0 for no effect and ±100 for the full control effect; luciferase read-out
Lassa entry inh = Lassa virus entry inhibition; Lassa virus pseudotype entry inhibition, cell reporter; control for the full effect not named in the record; hit rate 1.2% among 300,000; Potency, µM (titrated, usually from 37.9 µM), for inactives: top-dose activity change, negative = inhibition, hits mostly inhibitors; AID 540256; active means well fitted inhibition curve with a large enough effect; inconclusive means small, poorly fitted or top-dose-only effect, or effect the other way; inactive means flat fitted curve, though single readings scatter; tested in HEK293 cells; also: % is scaled to controls: 0 for no effect and ±100 for the full control effect; nearly all actives have a fitted effect of over 50% in size; luciferase read-out
RE007 growth inh = less growth of the S. pombe RE007 Vpr strain. hit rate 0.21% among 360,000. AID 651644. S. pombe RE007 Vpr strain, BacTiter-Glo ATP luminescence, 24 h; control for the full effect not named in the record. Potency, µM (top dose mostly 92.2 µM), for inactives: at the highest dose activity change, negative = less growth; active = well fitted falling curve with a large enough effect; inconclusive = small, poorly fitted or top-dose-only effect; inactive = no such curve, though single readings can be large or run the other way;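 also: % is scaled to controls: 0 for no effect and ±100 for the full control effect; nearly all actives have a fitted effect of over 50% in size; the assay follows cell death caused by Vpr and the record does not say whether a fall means rescue or toxicity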
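Fission yeast RE007 carrying one integrated HIV-1 vpr copy, seeded at OD 0.01 in PMG+AL medium with 23 nL pinned compound. Grown 24 h at 30 degrees; viability read by BacTiter-Glo luminescence after 5 min.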
StopGo reporter = lowers the luciferase signal of an FMDV 2A StopGo reporter | human cells with a luciferase reporter of 2A StopGo recoding; control for the full effect not named in the record | Potency, µM (doses to about 57.9 µM), for the others: at the highest dose signal change, negative = less light | hit rate 1.2% among 410,000 | AID 1159524; active = well fitted falling curve with a large enough effect; inconclusive = small, poorly fitted or top-dose-only effect; inactive = no such curve, though single readings can be large or run the other way; tested in HEK293T cells; also: % is scaled to controls: 0 for no effect and ±100 for the full control effect; nearly all actives have a fitted effect of over 45% in size; luciferase light after 4 h
NS1 inh = blocks influenza NS1 protein function; hit rate 0.4% among 270,000; Potency, µM (series often up to 46.1 µM), for the others: at the highest dose activity, positive = more growth; S. cerevisiae slowed by influenza A NS1, growth recovery by OD600; active means well fitted rising curve with a large enough effect; inconclusive means small, poorly fitted or top-dose-only effect; inactive means no such curve, though single readings can be large or run the other way; also: nearly all actives have a fitted effect of over 50% in size
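Recovery from NS1-induced slow growth read by OD600 in budding yeast switched to galactose assay medium (pH 6.0, -URA) at 1:100 dilution. Compound 23 nl per well; the matching strain lacking NS1 serves as control.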
SARS PLP yeast = SARS-CoV PLP inhibition in yeast; AID 485353; S. cerevisiae expressing SARS-CoV PLpro, growth rescue; control for the full effect not named in the record; hit rate 0.19% among 330,000; Potency, µM (doses to about 32.9 µM), for the others: top-dose activity, positive = growth rescue; active means well fitted rising curve with a large enough effect; inconclusive means small, poorly fitted or top-dose-only effect; inactive means no such curve, though single readings can be large or run the other way; also: 0% is about no effect; nearly all actives have a fitted effect of over 55% in size; growth read by luminescence after 48 h
* hit, by the source's call; ? = inconclusive; . = no result given; & = joins results of further samples; [ ] = dose if it differs, or a comment. Unless noted, calls follow the shape of the dose curve; as a rule, active = well fitted curve in the direction sought with a large enough effect; inconclusive = small, poorly fitted or top-dose-only effect, or another doubt; inactive = no such curve, though single readings can be large; an effect the other way counts as inactive or inconclusive. Potency is read from the fitted curve at half-maximal effect.

Results follow in this order: Cruzain noTriton	Cruzain inh Det	Marburg entry inh	Lassa entry inh	RE007 growth inh	StopGo reporter	NS1 inh	SARS PLP yeast
1) Cc1ccn2c(C(=O)CSc3ccccc3Cl)c(C)nc2c1
 : 0%	0.7%	?	?	-6%	-7%	3%	-2%
2) Cc1ccccc1C(=O)NNC(=O)c1cccc(Br)c1
 : .	.	.	.	14%	30%	-7%	-1%
3) Cc1nc(SCC(=O)N2CCN(c3ccccc3)CC2)[nH]c(=O)c1C
 : -16%	-2.1%	-2%[46.1 µM]	-1%[46.1 µM]	.	-14%	.	.
4) CN(Cc1ccccc1)c1nc2c(c(=O)n(C)c(=O)n2C)n1CCSc1ncccn1
 : 4%	-2.2%	1%	.	0%	?	-4%	1%
5) CC1CCCCN1S(=O)(=O)c1ccc(F)c(C(=O)Nc2ccccc2C(F)(F)F)c1 (configuration not stated)
 : -12%	0.6%	.	0%[46.1 µM]	.	8%	.	.
6) COc1cccc(C=NNC(=S)NN=Cc2cccc(OC)c2OC)c1OC
 : .	.	-11%[46.1 µM]	-2%[46.1 µM]	-5%	5%	.	.
7) Cc1onc(-c2ccccc2)c1C(=O)N(Cc1ccccn1)Cc1ccccn1
 : .	.	-27%[46.1 µM]	8%[46.1 µM]	8%	-16%	0%	1%
8) CCOC(=O)c1sc(NS(=O)(=O)c2ccc(F)cc2)nc1C
 : .	.	15%[46.1 µM]	-7%	-1%	85%[activator]	4%	0%
9) Cc1ccc(C)c(N(C)S(=O)(=O)c2ccc3[nH]cc(C(=O)NC4CCCC4)c(=O)c3c2)c1
 : 16%	-0.5%	.	-6%[46.1 µM]	.	-13%	.	.
10) Cc1cccc(-n2c(C)nc3cc(C(=O)NC4CCCCCC4)ccc32)c1
 : -13%	-3.9%	.	10%[46.1 µM]	.	17%	.	.
11) COc1cccc(/C=N/NC(=O)c2ccc(-n3cnnn3)cc2)c1
 : .	.	4%[46.1 µM]	-5%	-7%	-4%	.	0%
12) C/C(=N\O)C(C)(C)NC(=O)Nc1ccc(Cl)cc1
 : 2%	-7.9%	17%	-2%	-3%	16%	3%	8%
13) CCc1nnc(NC(=O)c2cc(C)oc2C)s1
 : .	.	4%[46.1 µM]	-19%[46.1 µM]	-7%	38%[activator]	1%	30%
14) COC(=O)C1=C(CSc2nc3c(cc2C#N)CN(C)CC3)OC(N)=C(C#N)C1c1ccccc1F (configuration not stated)
 : -23%	-23%	?	2%	-5%	-4%	?	1%
15) CC(=O)N(CCCN(C)C)c1nc2ccc(C)cc2s1
 : .	.	?	?	-5%	-2%	.	-2%
16) Cc1nn(C)c(C)c1S(=O)(=O)N1CCCC(C(=O)N2CCN(c3ccc(Cl)cc3)CC2)C1 (configuration not stated)
 : ?	-0.9%	?	-25%	-3%	?	-11%	1%
17) CCOc1cc(C(c2c(O)nc(SC)[nH]c2=O)c2c(O)nc(SC)[nH]c2=O)ccc1O
 : .	.	0%[46.1 µM]	1%	0%	-10%	.	.
18) CCc1nnc(NS(=O)(=O)c2ccc(NS(=O)(=O)c3ccccc3)cc2)s1
 : 14%	0.0%	10%	13%	-1%	-8%	5%	3%
19) Cc1ccccc1N1C(=O)CC(Nc2ccc3c(c2)OCO3)C1=O (configuration not stated)
 : .	.	-9%	-1%	-10%	0%	8%	14%
20) COc1ccc(C)cc1N1C(=N)/C(=C2/Nc3ccccc3S2)C(c2ccccc2)C1=O (configuration not stated)
 : ?	-5.9%	?	-1%	-18%	25µM*	17%	-10%
21) COCCN(C(=O)COC(=O)c1ccco1)c1c(N)n(Cc2ccccc2)c(=O)[nH]c1=O
 : .	.	19%	-13%	8%	-3%	.	-3%
22) COc1ccc(-c2cnnn2-c2ccc(NC(=O)c3ccc(S(=O)(=O)N4CCCCC4)cc3)cc2)cc1
 : ?	-2.1%	-5%	7.1µM*	1%	4%	?	0%
23) COc1ccc(C(C(=O)Nc2ccc3c(c2)OCO3)N(C)C(=O)Cc2c[nH]c3ccccc23)cc1 (configuration not stated)
 : 4%	-5.1%	-13%	?	-5%	0%	?	-3%
24) Cc1ccc(C(=O)NCCSC(C)(C)C)cc1[N+](=O)[O-]
 : -21%	-6.0%	?	12%	4%	30%[activator]	-13%	-18%
25) COCCN1Cc2cccc(C(=O)NCCc3ccccc3)c2C1=O
 : .	.	12%[46.1 µM]	10%[46.1 µM]	2%	63%[activator]	-3%	0%
26) Cc1nnc(NC(=O)CSc2nc(CC(C)C)nc3c2c(=O)n(C)c(=O)n3C)s1
 : .	.	-5%	-1%	-4%	-18%	.	-1%
27) CCCSc1nc(NCc2ccco2)c2c3c(sc2n1)COC(C)(CC)C3 (configuration not stated)
 : -6%	-4.4%	2%	-10%	4%	-26%	8%	-18%
28) O=C(Nc1cccc(NC(=O)c2cccnc2)c1)c1cccnc1
 : -4%	6.2%	-2%	22%	26%	.	9%	1%
29) CCCCC(CC)CNC(=O)C1CC=CCC1C(=O)O (configuration not stated)
 : 2%	-2.1%	14%	-2%	-5%	-23%	17%	3%
30) COc1ccc(N2CCN(C(=O)CSc3nnc4c(C)cc5c(C)cc(C)cc5n34)CC2)cc1
 : ?	-0.7%	?	?	11%	?	12%	2%
31) CCOC(=O)c1cc(-c2ccccc2)n(CCCC(=O)Nc2ccc(C)cc2C)c1C
 : -1%	-1.4%	.	-28%[46.1 µM]	.	-15%	.	.
32) COC(=O)c1ccc(COc2ccccc2/C=C(\C#N)C(=O)Nc2c(C)cccc2C)cc1
 : ?	-2.1%	11µM*	?	-3%	11µM*	-17%	-11%
33) C=CCn1c(SCc2nc3ccccc3c(=O)[nH]2)nc2ccccc2c1=O
 : -3%	-1.6%	-18%	-23%	1%	0%	24%	-8%
34) O=C(CSc1nc2ccccc2n1Cc1ccccc1Cl)NCc1ccccc1
 : -1%	-6.7%	.	?	.	0%	.	.
35) Cc1ccc(C)c(NC(=S)NC(NC(=O)Cc2cccc3ccccc23)C(Cl)(Cl)Cl)c1 (configuration not stated)
 : 7.9µM*	-1.6%	13µM*	7.9µM*	-5%	-22%	5%	12%
36) Cc1cc(O)c(C(C)C)cc1NC(=O)c1ccc(Cl)cc1
 : 12%	-0.6%	-28%[46.1 µM]	-20%	9%	-9%	-8%	2%
37) CCOC(=O)C1(c2ccccc2)CCN(CCc2ccc(NC(=O)CCC(=O)O)cc2)CC1
 : .	.	-3%[46.1 µM]	0%[46.1 µM]	8%	8%	.	.
38) N#CNC(=Nc1cccc(C(F)(F)F)c1)SCc1ccc(C(=O)O)cc1
 : .	.	.	.	2%	-29%	13%	-2%
39) COc1ccc(-c2nn(-c3ccc(F)cc3F)c3c2cnc2ccc(F)cc23)cc1
 : 8%	-0.1%	.	0%[46.1 µM]	.	-16%	.	.
40) COc1cccc2sc(N(Cc3cccnc3)C(=O)Cc3ccccc3)nc12
 : ?	-7.5%	.	-1%[46.1 µM]	.	13%	.	.
41) COc1ccc(N(Cc2ccccc2)S(=O)(=O)c2cccc(C(=O)NCC3CCCO3)c2)cc1 (configuration not stated)
 : .	.	-27%[46.1 µM]	3.2µM*	-17%	-2%	.	3%
42) CC1=NN(C(=O)c2ccc(Cn3cc(Br)c([N+](=O)[O-])n3)o2)C(O)(C(F)(F)F)C1 (configuration not stated)
 : 5%	-2.5%	-1%	4%	7%	-14%	14%	0%
43) COCc1cc(C)nc(OCC(=O)N/N=C/c2ccc(OC)c(OC)c2)c1C#N
 : 10%	-3.2%	?	7%	-2%	-23%	15%	-9%
44) CN(C)C=NC(=O)c1cc(C(=O)c2ccc(F)cc2)c[nH]1
 : .	.	-4%[46.1 µM]	-6%	-17%	20%	5%	0%
45) C/C(=N\NC(=O)C1(C)CC1(Br)Br)c1ccc(C)cc1C (configuration not stated)
 : .	.	-13%	-10%	-2%	-3%	-10%	-1%
46) Nc1cccc(S(=O)(=O)Nc2ccc(Br)cc2)c1
 : .	.	.	.	15%	16%	0%	-2%
47) CSc1nc2n(n1)C(c1cc(Br)ccc1F)C(C(=O)N(C)C)=C(C)N2 (configuration not stated)
 : 0%	2.1%	14%	-7%	-12%	9%	1%	3%
48) Cc1ccc2nc3c(cc(C(=O)NCCc4ccccc4)c(=N)n3CCN3CCOCC3)c(=O)n2c1
 : .	.	10%[46.1 µM]	12%[46.1 µM]	-7%	2%	-4%	-1%
49) CCOc1cnc(-c2c(-c3c(Cl)cccc3Cl)noc2C)o1
 : .	.	?	?	-10%	-19%	.	0%
50) O=C(NCCc1ccccc1)c1ccnc(/C=N/O)c1
 : 4%	0.0%	0%	2%	14%	.	11%	0%

(listing goes on)
Results follow in this order: Cruzain noTriton	Cruzain inh Det	Marburg entry inh	Lassa entry inh	RE007 growth inh	StopGo reporter	NS1 inh	SARS PLP yeast
51) CCCC/C(C)=N\NC(=O)CNS(=O)(=O)c1ccc([N+](=O)[O-])cc1
 : -1%	1.7%	4%	3%	4%	-2%	0%	-2%
52) COc1ccc(S(=O)(=O)NC2CC(=O)N(c3ccc(C)c(C)c3)C2)cc1C (configuration not stated)
 : .	.	-13%	-4%	-11%	4%	.	4%
53) O=C(Nc1ccc(Nc2ccccc2)cc1)c1cccc(F)c1
 : .	.	.	.	-11%	22%	-43%	3%
54) O=C(CSc1nc2ccccc2n1Cc1ccc(Cl)cc1)N/N=C/c1ccccc1C(=O)O
 : .	.	3%[46.1 µM]	-13%[46.1 µM]	-3%	-12%	?	-1%
55) O=C(CSC1=Nc2ccccc2C2=NC(CC(=O)NC3CCCCC3)C(=O)N12)NCc1ccco1 (configuration not stated)
 : -9%	-4.8%	-5%&-5%	-2%	-11%	20%	?	0%
56) CN1CCN(C2OC(=O)c3ccccc32)CC1 (configuration not stated)
 : 10%	4.7%	0%	8%	12%	18%	1%	11%
57) Cc1cc(C)n(Cc2cccc(F)c2)c(=O)c1C#N
 : 0%	-0.8%	8%	1%	18%	8%	2%	4%
58) CCCS(=O)(=O)c1nc(S(=O)(=O)c2ccc(C)cc2)c(NCc2ccc3c(c2)OCO3)s1
 : ?	-4.3%	-1%	-14%	5%	21%	19%	?
59) COc1ccccc1NC(=O)CSc1nnc2c3ccccc3n(C(C)C)c2n1
 : -7%	-7.9%	?	?	.	?	.	.
